Menin-MLL FL inh = displaces fluorescein MLL peptide from human menin | AID 1766 | 290,000 tested, under 10 active | Fluorescence polarization, fluorescein-MLL peptide displacement from menin | FP activity change, % at 61.4 µM; inconclusive = falling polarisation curve, or a change in total fluorescence; inactive = total fluorescence flat and polarisation flat or rising; no compound was filed as active; the % refers to the polarisation; negative = inhibition;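 note: % of control where 0% means no effect; inhibitors lower the polarisation; unlabelled MLL peptide was the positive control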
TRPML1 inh = inhibitors of human TRPML1 channel; Q9GZU1; TRPML1-inducible cells, Ca2+ dye fluorescence, FDSS; active compounds read low; inhibition of EC80 agonist-evoked calcium signal; activity change, negative = inhibition, % (no concentration beside the values); 0.02% of 390,000 active; in the data active means activity change below about -50%; inconclusive means about -30% to -50%; inactive means above about -30%;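 note: stimulus is agonist 54-4 at its EC80 concentration; % is set by controls: 0 for no effect and ±100 for the full control effect; compound concentration not given in the record; the text of the record puts the active cut at -80%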
Target sequence (Q9GZU1 whole entry, looked up): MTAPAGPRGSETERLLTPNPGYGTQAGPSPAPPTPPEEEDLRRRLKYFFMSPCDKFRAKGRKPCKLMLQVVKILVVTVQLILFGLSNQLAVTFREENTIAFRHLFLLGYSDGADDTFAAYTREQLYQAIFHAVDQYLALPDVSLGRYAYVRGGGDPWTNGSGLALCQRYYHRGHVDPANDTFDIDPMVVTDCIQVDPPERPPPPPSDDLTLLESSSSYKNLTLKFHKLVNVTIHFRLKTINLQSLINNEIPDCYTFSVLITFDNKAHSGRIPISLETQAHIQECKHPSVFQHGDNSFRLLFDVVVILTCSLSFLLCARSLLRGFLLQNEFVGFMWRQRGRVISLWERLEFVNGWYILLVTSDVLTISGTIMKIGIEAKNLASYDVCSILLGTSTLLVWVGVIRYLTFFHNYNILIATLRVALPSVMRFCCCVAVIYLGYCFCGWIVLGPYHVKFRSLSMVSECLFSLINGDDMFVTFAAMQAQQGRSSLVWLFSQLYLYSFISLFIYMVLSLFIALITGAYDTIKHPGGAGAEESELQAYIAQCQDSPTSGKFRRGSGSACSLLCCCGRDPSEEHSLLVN
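TRPML1-DL cells, Tet-induced overnight (~16 h, 37 °C) at 1,500 cells/well, were loaded with Ca8 no-wash dye plus quencher for 45-90 min at room temperature. Compounds were pinned during FDSS kinetic reading; agonist 54-4 at EC80 (4 uM final) then added.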
gsp antagonist = antagonizes gsp, the McCune-Albright syndrome mutation | gsp-mutant cells, cAMP HTRF, 30 min; control for the full effect not named in the record | Potency, µM (titrated, usually from 76.9 µM), for inactives: at the top dose activity change, negative = inhibition, hits mostly inhibitors | 0.4% of 340,000 active; active = falling curve of any shape with a large fitted effect; inconclusive = falling curve, mostly with a smaller effect; inactive = flat or rising curve; cell line not stated here;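 note: intracellular cAMP measured with PDE inhibitor Ro 20-1724 present during compound exposure; potency is the fitted concentration of half-maximal effect; % is set by controls: 0 for no effect and ±100 for the full control effect; nearly all actives have a fitted effect of over 65% in size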
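HTRF cAMP read-out (cAMP-d2 plus anti-cAMP antibody-K in lysis buffer, 30 min RT). Before lysis, cells are exposed to compounds with […] for 30 min at 37C in DPBS containing Ca/Mg, BSA and Tween 20.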
ClpP mod = qHTS Assay for Activators of ClpP. 1.9% of 340,000 active. Potency, µM (highest dose often 57.5 µM), for inactives: at the top dose activity change, negative = active. AID 651965, 2013. purified B. subtilis ClpP, FRET peptide cleavage, 20 min; active = well fitted falling curve with a large enough effect; inconclusive = small, poorly fitted or top-dose-only effect; inactive = no such curve, though single readings can be large or run the other way; note: potency is the fitted concentration of half-maximal effect; the source files actives as falling curves though it sought activators and does not explain the sign; nearly all actives have a fitted effect of over 65% in size; many hits overshoot -100%
Target sequence (P80244 whole entry, looked up): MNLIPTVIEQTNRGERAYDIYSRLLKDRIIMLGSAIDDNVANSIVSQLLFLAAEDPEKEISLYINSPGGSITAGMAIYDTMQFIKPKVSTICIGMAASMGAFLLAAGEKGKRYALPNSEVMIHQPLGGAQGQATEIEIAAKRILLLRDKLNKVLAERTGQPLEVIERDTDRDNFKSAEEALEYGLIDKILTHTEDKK
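Buffer: 100 mM Tris/HCl pH8, 100 mM KCl, 0.05% low protease BSA, 2.5% glycerol, 0.01% Tween-20. ClpP 10 microg/mL final; 20 min RT; delta FRET normalized to ADEP and DMSO controls.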
TRPML1 ag = activates the human TRPML1 channel | activation, % (concentration not given with the values) | Q9GZU1 | 0.12% of 410,000 active | TRPML1-expressing cells, Ca2+ dye fluorescence, FDSS; host cell line not named in the record; reference of the full effect not given here; in the data active = activation above about 50%; inconclusive = about 30% to 50%; inactive = below about 30%; note: 0% is about no effect; the text of the record puts the active cut at 80%
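Kinetic FDSS Ca2+ read in Tet-induced TRPML1-DL cells (ABD Ca8 dye plus quencher, 45-90 min RT loading): baseline, then compound, then 110 s agonist window; EC80 agonist 54-4 at 4uM final added afterwards for a 110 s antagonist window.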
gsp agonist = agonists of gsp mutant (McCune-Albright syndrome) | gsp mutant cells, cAMP HTRF, 30 min; control for the full effect not named in the record | Potency, µM (titrated, usually from 76.9 µM), without a hit: top-dose activation (cAMP increase), most hits filed as activators | AID 624287 | 0.13% of 340,000 active; active = well fitted activation curve with a large enough effect; inconclusive = small, poorly fitted or top-dose-only effect, or another doubt; inactive = no such curve, though single readings can be large or run the other way; cell line not stated here;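 note: phosphodiesterase inhibitor Ro 20-1724 added with compounds to block cAMP breakdown; potency is the fitted concentration of half-maximal effect; nearly all actives have a fitted effect of over 60% in size; about a fifth of the inactives were tested at one dose only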
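Cells stably selected in G418 were plated at 2000/well, grown 16-24 hr, then given compounds in DMSO with the PDE inhibitor […] (300 uM solution added) for 30 min at 37C; cAMP was read by HTRF.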
Starred values were filed as active, the others as inactive; ? = inconclusive; . = no result given; & = joins results of further samples; [ ] = remark or other dose.

| Molecule | Menin-MLL FL inh | TRPML1 inh | gsp antagonist | ClpP mod | TRPML1 ag | gsp agonist |
| --- | --- | --- | --- | --- | --- | --- |
| CC1CN(C(C)C(=O)NC(c2ccccc2)c2ccccc2)CC(C)O1 (configuration not stated) | -7.9 | 0 | -9% | . | -0.4 | -15% |
| Cc1ccc(NC2=C(Cl)C(=O)OC2OC(C)C)c(C)c1 (configuration not stated) | -4.3 | 17 | -18% | 0.4% | -1.7 | -29% |
| CCOCC(=O)Nc1ccc(S(=O)(=O)NCC2CCCO2)cc1 (configuration not stated) | -6.8 | -19 | 9% | . | 0.1 | -5% |
| COc1cc(NC(=O)c2ccc(NC3=NC4CS(=O)(=O)CC4S3)cc2)cc(OC)c1 (configuration not stated) | -4.0 | 25 | -2% | 0.1% | -0.1 | -32%[inhibitor] |
| CCCCNC(=O)c1ccc(CS(=O)(=O)c2ccc(C)cc2)o1 | 4.4 | -6 | -17% | -0.2% | -1.6 | 13%[15.4 µM] |
| O=[N+]([O-])c1ccc(CSc2ccc(-c3ccccn3)nn2)cc1 | -1.3 | 42 | -1% | . | 0.1 | -1%[15.4 µM] |
| COc1cccc(NC(=O)COC(=O)Cc2ccc(Br)cc2)c1 | -4.1 | 0 | 11% | -0.2% | -1.6 | -10%[15.4 µM] |
| CCC(C)NC(=O)COC(=O)c1ccc(Cl)cc1O (configuration not stated) | 0.3 | 30 | 6% | ? | 2.1 | -36%[inhibitor] |
| Cc1[nH]nc2c1C(c1cc(Br)cs1)C(C#N)=C(N)O2 (configuration not stated) | 3.0 | -14 | 7% | 0.9% | 0.6 | -24% |
| N#Cc1ccc(N2C(=O)[C@@H]3C(C(=O)c4cnccn4)=NN[C@@H]3C2=O)cc1 | ? | 14 | 15% | . | 0.0 | 2%[15.4 µM] |
| C1CC(CN2CCOCC2)CN(c2nc3nonc3nc2N2CCSCC2)C1 (configuration not stated) | 1.3 | 28 | 1% | . | -1.2 | 10%[15.4 µM] |
| Cc1nc(CCNC(=O)Cc2ccccc2)cs1 | 1.0 | -13 | 11% | 0.6% | -0.7 | -9% |
| O=C(c1ccc(Cl)cc1)N1N=CCC1(O)c1ccc(Cl)cc1 (configuration not stated) | 9.2 | . | 4% | 1.0% | . | -24% |
| CC(C)(C)NC(=O)C(=O)NN=C1CCCCCC1 | 1.2 | 8 | 27% | . | -1.1 | 4%[15.4 µM] |
| Cc1cccc(NC(=O)Cn2cc(C(=O)c3ccco3)c3ccccc32)c1 | 2.5 | 7&0 | -8% | 0.0%&-11% | 1.2&2.0 | ? |
| CCS(=O)(=O)N1CCC(C(=O)N2CCOCC2)CC1 | -1.6 | -8 | -1% | 0.1% | 1.1 | -2% |
| C[C@H]1CN([C@@H](C)CO)S(=O)(=O)c2ccc(Br)cc2O[C@@H]1CN(C)C(=O)CCN1CCCCC1 | . | -6 | . | 0.9% | -0.2 | 14% |
| O=C(Nc1ncccc1O)c1cc2ccccc2o1 | . | 1 | -3% | -4.5% | -0.9 | 13% |
| COc1cccc(S(=O)(=O)N(C)C[C@H]2OCc3cnnn3CCCC(=O)N([C@@H](C)CO)C[C@H]2C)c1 | . | 12 | . | 0.9% | -0.4 | -6% |
| NS(=O)(=O)c1ccc(NC(=O)COC(=O)CCc2nc3ccccc3c(=O)[nH]2)cc1 | . | 5 | 8% | -3.0% | 0.3 | -1% |
| O=C(N=Nc1c(O)[nH]c2ccccc12)c1cccs1 | -1.5 | 15 | -3% | . | -0.6 | -38%[inhibitor] |
| Cc1ccc(N2C(=O)C(Cl)=C(N3CCCCCC3)C2=O)c(C)c1 | 9.1 | -15 | ? | -1.2% | 21 | 6%[15.4 µM] |
| Cc1nnc(SCC(=O)c2ccc(Cl)cc2)s1 | 7.8 | 29 | -1% | . | -0.8 | 2% |
| COc1ccc(/C(O)=C2/C(=O)C(=O)N(CCCN3CCOCC3)C2c2ccc(C(C)C)cc2)cc1 (configuration not stated) | -8.0 | 17 | -1% | -0.6% | -0.1 | ? |
| COC(=O)Nc1ccc(S(=O)(=O)N2CCCc3cccc(O)c32)cc1 | 1.5 | 0 | -6% | -3.9% | 0.4 | -28% |
| CCN(CC)CCC=C(c1cccs1)c1cccs1 | . | -10 | -9% | 1.5% | 0.0 | -35%[15.4 µM] |
| Cc1cc(NC(=O)CCCn2nc([N+](=O)[O-])c(Br)c2C)no1 | 3.5 | -6 | 3% | 1.2% | -0.9 | -16% |
| c1ccc(-c2csc(N3CCCCCC3)n2)cc1 | 0.4 | -3 | -26% | 0.2% | -0.3 | -25% |
| COCCNC(=O)c1cn(C(C)c2ccccc2F)nn1 (configuration not stated) | 3.0 | 12 | 4% | -2.7% | -0.6 | -6% |
| COCCN(C(=O)C(F)(F)F)C(C(=O)NC1CCCCC1)c1ccco1 (configuration not stated) | -2.3 | 6 | 3% | 1.1% | -1.1 | -14% |

(more compounds)
| Molecule | Menin-MLL FL inh | TRPML1 inh | gsp antagonist | ClpP mod | TRPML1 ag | gsp agonist |
| --- | --- | --- | --- | --- | --- | --- |
| CCCC(=O)n1nc(-c2ccco2)nc1NCc1ccccc1Cl | . | 7 | . | -0.9% | -0.2 | . |
| CC(=O)COC(=O)C1CCN(S(=O)(=O)c2cc([N+](=O)[O-])ccc2Cl)CC1 | -0.6 | 5 | -13% | -0.4% | 0.4 | 10% |
| N#Cc1c(N)nc2c(c1N)CC(=O)N2c1ccc(Cl)cc1 | ? | -2 | -1% | -0.3% | -0.4 | 4% |
| C=CCOc1ccc2c(=O)n(C)c3ccccc3c2c1 | 6.6 | -12 | . | . | 1.0 | . |
| CN(C)c1ccc(C(=S)N2CCN(C(=S)Nc3ccccc3)CC2)cc1 | 0.2 | 13 | -5% | . | -0.2 | 14% |
| COc1ccc(/C=N/NC(=O)CCn2c3ccccc3c3ccccc32)cc1O | -1.1 | -1 | 2% | -1.5% | 0.1 | -5% |
| COc1ccc(-c2[nH]ncc2CN2CCN(Cc3cccs3)CC2)c(F)c1 | 0.0 | -1 | -10% | . | -0.6 | 1% |
| CCCNC(=O)C1(C)CCN(Cc2csc(-c3ccc(Cl)cc3)n2)C1 (configuration not stated) | . | -9 | . | -1.6% | -0.3 | . |
| COc1cccc(CNC(=O)COC(=O)CCc2cc(OC)c(OC)c(OC)c2)c1 | . | -4 | 9% | -1.5% | 0.2 | -43%[inhibitor] |
| CCOCCCNC(=O)C1CCCN(S(=O)(=O)c2cccc3nsnc23)C1 (configuration not stated) | 0.0 | 13 | 8% | . | -0.6 | 24%[15.4 µM] |
| Cc1csc(CN(C)C(=O)CC2C(=O)NCCN2CC(C)(C)C)n1 (configuration not stated) | ? | -6 | 13% | . | -0.4 | 1% |
| Cc1ccc(NC(=O)C2CC(=O)N(C(C)C)C2)cc1C (configuration not stated) | -0.4 | -3 | 2% | 1.1% | -0.3 | -41%[15.4 µM] |
| CCOC(=O)c1ccc(N=C2SC(C(=O)Nc3ccccc3)CC(=O)N2C)cc1 (configuration not stated) | . | 4 | . | -3.1% | 2.2 | . |
| CC1=NN(S(=O)(=O)c2ccc(Cl)cc2Cl)C(=O)c2ccccc2O1 | -0.9 | 6 | 0% | . | 1.6 | 7%[15.4 µM] |
| Cc1cc(C(=O)CSc2nnnn2C)c(C)n1Cc1ccco1 | -2.1 | -12 | 6% | 1.3% | 0.1 | 1% |
| Cc1csc(CNC(=O)c2cc(COc3c(C)cccc3C)on2)n1 | 2.2 | 10 | -11% | -1.1% | -1.1 | ? |
| COC(=O)c1ccc(C(=O)Nc2nc3cc(N)c(C)cc3s2)cc1 | -0.6 | -11 | 12% | . | 1.1 | -2% |
| COc1ccc(S(=O)(=O)N2CCOC2CNC(=O)C(=O)NCCc2ccccc2OC)cc1 (configuration not stated) | -0.3 | -7 | 2% | -0.8% | -0.2 | 23% |
| CCc1ccccc1NC(=O)Cn1nnc(-c2nc(-c3ccncc3)no2)c1N | . | -5 | . | -0.4% | 0.4 | . |
| O=C(c1cccc(C(F)(F)F)c1)N1CCC(O)(CS(=O)(=O)Cc2ccccc2Cl)CC1 | -1.4 | -1 | -9% | 0.9% | -0.4 | -5% |
| CC(C)CCN1CN(S(=O)(=O)c2cccs2)c2nc3ccccc3nc21 | 0.3 | 5 | -1% | -22% | 2.0 | 10% |
| Cc1ccc(OCC(=O)Nc2cc(S(=O)(=O)N3CCCCC3)ccc2N2CCN(C)CC2)c(C)c1 | . | 44 | -4% | -0.6% | 0.3 | 5% |
| CC(=O)N1CCc2c(sc3c2c(=O)n(CCc2ccccc2)c(=O)n3CC(=O)Nc2ccccc2F)C1 | . | -6 | . | -6.2% | -0.4 | . |
| CC1CCCCC1NC(=O)C1CCN(S(=O)(=O)c2ccc(-n3cnnn3)cc2)CC1 (configuration not stated) | -1.4 | 2 | 3% | -1.3% | 0.4 | 4% |
| C=C(C)c1cccc(C(C)(C)NC(=O)N2CCCC2)c1 | -3.2 | 32 | 4% | 0.7% | -0.7 | -37%[inhibitor] |
| CCOC(=O)c1c(NC(=O)C2COc3ccccc3O2)sc(C)c1C (configuration not stated) | 2.4 | 22 | 11% | ? | -0.5 | -27% |
| COCC(=O)N(Cc1cc2cc(C)ccc2[nH]c1=O)c1ccccc1 | 1.5 | -27 | 3% | 4.4% | -0.2 | -59%[inhibitor] |
| CC1=CC(C)(C)N(C(=O)CSc2nnc(C)s2)c2ccc(C)cc21 | 1.9 | 19 | -7% | -4.1% | 0.0 | -54%[inhibitor] |
| CC(=O)Nc1ccc2ccccc2c1[N+](=O)[O-] | . | -14 | 7% | . | -0.2 | -5% |
| Cc1ccc(NC(=O)CN2C(=O)S/C(=C\c3cc(C)n(C)c3C)C2=O)cc1 | 12 | 13 | -2% | 1.0% | 0.6 | 6% |

More entries:
| Molecule | Menin-MLL FL inh | TRPML1 inh | gsp antagonist | ClpP mod | TRPML1 ag | gsp agonist |
| --- | --- | --- | --- | --- | --- | --- |
| Cc1cc(Br)cc(Br)c1OCC(=O)NNC(=O)CCC(=O)NCc1ccccc1 | . | -18 | 10% | -3.0% | -0.2 | 27% |
| O=C(O)c1nn2c(C(F)(F)F)cc(-c3cccs3)nc2c1Cl | 1.2 | 21 | -15% | 1.7% | 0.0 | -16% |
| Nc1cccc2c1C(=O)N(CCOc1ccc(F)cc1)C2=O | -5.3 | -15 | -2% | . | 0.6 | 18% |
| O=C(O)c1ccc(/C=N/NC(=S)NCCN2CCOCC2)cc1 | 2.6 | 1 | -16% | . | -0.7 | -6%[15.4 µM] |

Two of these compounds, set out differently:
The line under a structure holds: Menin-MLL FL inh, TRPML1 inh, gsp antagonist, ClpP mod, TRPML1 ag, gsp agonist
O=C(O)c1nn2c(C(F)(F)F)cc(-c3cccs3)nc2c1Cl
 : 1.2, 21, -15%, 1.7%, 0.0, -16%
Nc1cccc2c1C(=O)N(CCOc1ccc(F)cc1)C2=O
 : -5.3, -15, -2%, ., 0.6, 18%
